# Beta2AR agonist – beta2AR agonists driving receptor internalization, primary screen, cell-based, FAP fluorogen, flow cytometry | Beta-2 adrenergic receptor (Homo sapiens), P07550 | Am2.2-beta2AR cells; reference of the scale not given here | response, % (no concentration beside the values) | hit rate 0.43% among 340,000 | AID 504454, 2011;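 active = response above a set limit, near 3 SD of response in nonfluorescent compounds, cut at about 42% in these data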;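 note: stock transfer was 100 nL into about 11 µL; a reference agonist was the positive control; negative values mostly stem from fluorescent compounds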
# Target sequence (P07550 whole entry, looked up): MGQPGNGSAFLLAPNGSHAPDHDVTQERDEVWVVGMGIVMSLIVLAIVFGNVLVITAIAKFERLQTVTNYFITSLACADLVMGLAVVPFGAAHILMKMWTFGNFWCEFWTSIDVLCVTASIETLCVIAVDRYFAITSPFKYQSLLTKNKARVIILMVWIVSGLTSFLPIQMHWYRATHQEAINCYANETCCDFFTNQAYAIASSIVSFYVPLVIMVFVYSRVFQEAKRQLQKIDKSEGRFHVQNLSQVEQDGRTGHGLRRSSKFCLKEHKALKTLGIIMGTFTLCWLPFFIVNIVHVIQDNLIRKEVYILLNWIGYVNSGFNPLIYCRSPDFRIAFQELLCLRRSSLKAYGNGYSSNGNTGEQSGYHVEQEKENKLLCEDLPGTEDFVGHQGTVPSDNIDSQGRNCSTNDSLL
# E coli growth – E. coli growth inhibition, primary screen, OD600 | Escherichia coli growth, 23 h; hits give low values | OD600 absorbance (concentration not given with the values) | hit rate 0.21% among 330,000 | AID 1053175, 2014;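 active = OD600 absorbance below the run mean of sample wells minus 3.6 SD, in any replicate, cut at about 0.56 in these data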;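 note: stock transfer was 300 nL into about 60 µL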
# FGF22 binding – binders of human FGF22 protein, primary screen, FGF22 synaptogenesis inhibitor project, biophysical, thermal shift, single point; Fibroblast growth factor 22 (Homo sapiens), Q9HCT0; hit rate 1.5% among 340,000; recombinant FGF22 thermal shift, SYPRO orange fluorescence; percent of sucrose octasulfate shift, DMSO zero; calls only at 9.99 µM;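 active = melting point raised past a set limit in the mean and every replicate; three in four hits are not shown here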
# Target sequence (Q9HCT0 whole entry, looked up): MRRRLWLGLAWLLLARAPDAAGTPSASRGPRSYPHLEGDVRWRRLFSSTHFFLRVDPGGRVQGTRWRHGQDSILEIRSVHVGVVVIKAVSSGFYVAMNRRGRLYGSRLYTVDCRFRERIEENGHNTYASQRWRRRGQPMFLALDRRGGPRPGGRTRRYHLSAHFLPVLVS
# UCH37 inh – inhibitors of human UCH37 deubiquitinase, primary screen, biochemical, Ub-AMC cleavage, fluorescence; Ubiquitin carboxyl-terminal hydrolase isozyme L5 (Homo sapiens), Q9Y5K5; hit rate 0.33% among 330,000; purified proteasome/UCH37; AID 588478, 2011; inhibition, % (no concentration beside the values);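 active = mean of two replicates above 20%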;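 note: 0% = compound-free wells with enzyme and 100% = wells lacking proteasome; stock transfer was 100 nL into about 20 µL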
#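 Test system – human UCH37 enzyme supplied as purified proteasome complex · Incubation – 30 min preincubation with enzyme, 25 min cleavage at room temperature · Detection – AMC fluorescence from Ub-AMC cleavage, excitation 355 nm, emission 460 nm · Benchmarks – no-proteasome wells (full inhibition) and compound-free wells (no inhibition)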
# HNF4A DNA FP – change in binding of human HNF4A to DNA, primary screen, biochemical, fluorescence polarization, FITC-DNA | Hepatocyte nuclear factor 4-alpha (Homo sapiens), P41235 | activity change, % at 10 µM | 1 h | hit rate 0.3% among 360,000; in the data active = activity change above about 30%, passing the limit was not always enough;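 note: controls were the assay level and a saturating level of protein; the project sought stronger binding though the title names inhibitors; some compounds called inactive have numbers as strong as hits; positive values seem to mean higher polarization but the record does not say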
# ALR inh – inhibitors of human ALR sulfhydryl oxidase, primary screen, biochemical, H2O2 detection, HRP-luminol luminescence, single point | purified ALR, DTT oxidation | FAD-linked sulfhydryl oxidase ALR (Homo sapiens), P55789 | hit rate 3.8% among 290,000 | inhibition, % (test concentration not listed);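 active = mean and each replicate at 75% or more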;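 note: stock transfer was 7.5 nL into about 7.5 µL; 0% = neutral wells and 100% = wells with inactivated enzyme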
# Target sequence (P55789 whole entry, looked up): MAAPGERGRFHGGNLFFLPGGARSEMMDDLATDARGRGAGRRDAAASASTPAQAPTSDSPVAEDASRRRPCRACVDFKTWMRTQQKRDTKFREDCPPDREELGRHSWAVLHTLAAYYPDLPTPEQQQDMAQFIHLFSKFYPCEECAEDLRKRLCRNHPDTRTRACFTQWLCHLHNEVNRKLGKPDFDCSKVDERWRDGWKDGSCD
# Ecoli rRNA inh – reduced GFP signal of wild-type E. coli, primary screen, bacterial rRNA inhibitor project, GFP/RFP fluorescence, OD600, single point | GFP signal change (wild-type ribosome), % (test concentration not listed) | E. coli WT GFP vs humanized-ribosome RFP mutants, 24 h; hits give low values; DMSO median 0, no signal -100 | hit rate 1.6% among 350,000;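 active = significant combined selectivity score with lowered wild-type GFP, culture density cut under 30%, mutant RFP and density less affected; inactive = any of these conditions unmet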; note: one replicate is shown; some compounds called inactive have numbers as strong as hits
# Ecoli rRNA inh OD600 – second read-out of Ecoli rRNA inh, no call of its own (marks repeat the call); OD600 change, %; measured here: OD600 growth;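 optical density of the mix in the first replicate; 0 = DMSO median and -100 = no signal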
# Ecoli rRNA inh RFP – second read-out of Ecoli rRNA inh, no call of its own (marks repeat the call); RFP signal change, %; measured here: RFP humanized mutant strains;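 first replicate; 0 = DMSO median and -100 = no signal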
# Numbers without * were called inactive; i = inactive; / = no result given. Not all compounds are listed (hit frequency here may not be typical).
# Start of the data: the first five records, to show the layout:
SMILES,Beta2AR agonist,E coli growth,FGF22 binding,UCH37 inh,HNF4A DNA FP,ALR inh,Ecoli rRNA inh,Ecoli rRNA inh OD600,Ecoli rRNA inh RFP
COc1ccc(N2CCN(C(=O)C(=O)c3cn(CC(=O)N4CCCCCC4)c4ccccc34)CC2)cc1,17.8,0.716,i,5.7,0.5,-12.9,5.8,0.1,0.4
CN1CCCCCC1=Nc1ccc([N+](=O)[O-])cc1,-0.8,0.673,/,5.4,-0.4,1.3,14.3,19.4,2.8
CCc1c(C)sc(NC(=O)c2cc(C3CC3)on2)c1C#N,3.2,0.755,i,-2.1,4.3,94.4*,-4.2,-3.3,-2.9
CCCc1cc(=O)oc2cc(C)cc(OC(C)C(=O)NCc3ccccn3)c12 (stereo not drawn),-1.5,0.659,i,-95.2,-2.5,-10.1,-4.2,8.8,-0.4
CCOc1ccccc1N(CC(=O)NCCc1ccccc1)C(=O)CCC(=O)Nc1ccccn1,-10.5,0.688,i,0.6,-2.9,-9.6,-5.6,-17.9,6.0

# Results, from the first entry:
SMILES,Beta2AR agonist,E coli growth,FGF22 binding,UCH37 inh,HNF4A DNA FP,ALR inh,Ecoli rRNA inh,Ecoli rRNA inh OD600,Ecoli rRNA inh RFP
COc1ccc(N2CCN(C(=O)C(=O)c3cn(CC(=O)N4CCCCCC4)c4ccccc34)CC2)cc1,17.8,0.716,i,5.7,0.5,-12.9,5.8,0.1,0.4
CN1CCCCCC1=Nc1ccc([N+](=O)[O-])cc1,-0.8,0.673,/,5.4,-0.4,1.3,14.3,19.4,2.8
CCc1c(C)sc(NC(=O)c2cc(C3CC3)on2)c1C#N,3.2,0.755,i,-2.1,4.3,94.4*,-4.2,-3.3,-2.9
CCCc1cc(=O)oc2cc(C)cc(OC(C)C(=O)NCc3ccccn3)c12 (stereo not drawn),-1.5,0.659,i,-95.2,-2.5,-10.1,-4.2,8.8,-0.4
CCOc1ccccc1N(CC(=O)NCCc1ccccc1)C(=O)CCC(=O)Nc1ccccn1,-10.5,0.688,i,0.6,-2.9,-9.6,-5.6,-17.9,6.0
COCCCn1cn[nH]c1=S,-4.4,0.688,i,-0.7,2.1,-5.7,17.1,18.6,2.6
COC(=O)[C@]12CCCCC=C1N(CCc1ccc(OC)c(OC)c1)C(=O)[C@H](CC(=O)NCc1ccc(C)o1)C2,/,/,i,/,-0.3,/,-1.9,-7.5,3.5
O=C(CSc1nncs1)NNC(=O)c1ccccc1Br,-0.2,0.683,i,3.3,-3.1,/,17.9,6.2,1.5
Nc1ccc(OCC(O)C[n+]2ccc(CCS(=O)(=O)[O-])cc2)cc1 (stereo not drawn),-1.6,0.647,i,1.6,1.6,98.1*,17.0,12.7,1.9
COc1cc(OC)cc(C(=O)NCCS(=O)(=O)N2CCN(Cc3ccccc3)CC2)c1,-3.6,0.67,i,4.8,-0.6,5.6,-5.9,-14.7,0.9
CCCCc1ccc(N/C(N)=N/c2nc(C)cc(C)n2)cc1,1.0,/,i,/,-4.5,-14.5,/,/,/
CCOc1ccccc1N1CCN(C(=O)C2=CC=CN3CCS(=O)(=O)N=C23)CC1,-4.5,0.678,i,2.8,-2.7,38.0,12.6,1.6,0.8
COc1ccc(-n2nc(C(=O)NCC(=O)NCC3COc4ccccc4O3)c3ccccc3c2=O)cc1OC (stereo not drawn),5.5,0.68,/,-4.0,-4.5,-3.4,-9.9,-17.9,-1.4
COc1ccc(OC)c(C2/C(=C(\O)c3ccc(OC)c(Cl)c3)C(=O)C(=O)N2CCN(C)C)c1 (stereo not drawn),-2.0,0.693,/,8.2,3.6,-4.2,/,/,/
O=C(Nc1ccc(Nc2ccncc2)cc1)c1ccc([N+](=O)[O-])cc1,2.5,0.669,i,2.5,3.1,-6.3,2.8,8.7,-4.8
Cc1c(NC(=O)C(C)Sc2ccccc2)c(=O)n(-c2ccccc2)n1C (stereo not drawn),-8.5,0.711,/,1.9,-4.5,0.1,/,/,/
CC1(CSc2ccccc2)CC(=O)N1 (stereo not drawn),/,/,i,/,-2.1,/,21.1,3.5,2.5
O=C(CSCc1cccc(Cl)c1)N/N=C/c1ccc(OCC(=O)N2CCCCC2)cc1,-0.3,/,/,/,-1.4,-9.4,/,/,/
O=C(/C=C/c1ccc(OCCCF)cc1)N1CCN(Cc2ccccc2)CC1,-13.5,0.616,i,1.9,3.0,-4.6,-11.8,-17.3,-0.5
O=C1[C@@H]2C(c3cccnc3)=NO[C@@H]2C(=O)N1c1ccc(Cl)cc1Cl,2.3,0.675,i,-1.3,9.9,-0.7,9.3,4.3,-1.2
COc1ccccc1NC(=S)NNC(=O)c1nn(C)c(C)c1Cl,-7.7,0.707,/,-2.8,-0.7,73.9,/,/,/
O=C(COC(=O)CCc1ccccc1)Nc1cc([N+](=O)[O-])ccc1F,-0.5,0.666,/,2.0,-1.6,0.2,/,/,/
Cc1cc(-c2ccc(Cl)s2)n[nH]1,0.3,0.639,/,3.1,-0.9,-17.5,/,/,/
CC1CC2(C)CC(C)C1(COC(=O)Nc1ccccc1)CO2 (stereo not drawn),1.2,0.699,i,2.9,1.6,0.1,0.4,-4.4,0.2
N/N=C(\Cc1cscn1)c1ccc(O)cc1O,-0.5,/,i,/,3.0,33.6,-8.6,1.5,4.1

# Carrying on:
SMILES,Beta2AR agonist,E coli growth,FGF22 binding,UCH37 inh,HNF4A DNA FP,ALR inh,Ecoli rRNA inh,Ecoli rRNA inh OD600,Ecoli rRNA inh RFP
CCCCN1C2CCCC1CC(NC(=O)c1ccccc1Cl)C2 (stereo not drawn),-2.4,0.713,i,-1.6,-1.7,-4.6,8.4,13.9,0.4
O=C(/C=C/c1ccco1)Nc1ccccc1N1CCCC1,2.9,0.718,i,6.7,-3.3,98.9*,15.0,15.6,8.3
O=C(Nc1ccccc1C(=O)N1CCOCC1)C1CCC(=O)N1C1CCCC1 (stereo not drawn),-5.8,0.662,/,0.9,2.0,-4.0,/,/,/
Cc1ccc(CNC(=O)c2ccc3c(=O)[nH]c4c(C(=O)NCC5CCCO5)sc(=S)n4c3c2)cc1 (stereo not drawn),-1.1,0.733,i,14.2,0.5,19.4,-9.1,20.6,3.7
Clc1ccc(CCNc2ncnc3c2nnn3Cc2ccccc2)cc1,-4.4,0.659,i,1.8,3.0,-17.3,/,/,/
Clc1ccc(N=NN2CCOCC2)cc1,-2.3,0.691,i,5.1,-0.9,-6.1,8.8,9.4,0.3
COc1ccc(N2CC(C(=O)Nc3ccc([N+](=O)[O-])cc3Br)CC2=O)cc1 (stereo not drawn),1.1,0.629,i,2.7,-1.4,-27.7,/,/,/
N#Cc1ccc(N2CCCC2C(=O)O)c([N+](=O)[O-])c1 (stereo not drawn),-8.5,0.689,/,1.7,-2.2,/,/,/,/
CCOC(=O)CNC(=O)CSc1nc2sc(C)c(C)c2c(=O)n1C,6.3,0.664,/,1.8,11.7,-3.1,/,/,/
CCOC(=O)c1c(NC(=O)C(=O)N/N=C/c2ccc(OCC)cc2)sc2c1CCCCC2,0.8,/,i,/,2.3,1.0,5.1,5.6,-0.5
Cc1cccc(C)c1NC(=O)c1ccc2c(c1)CCN2S(C)(=O)=O,-3.6,0.672,i,0.1,-3.7,-9.9,-5.5,1.3,3.7
O=C(c1cnccn1)N1CCN(C/C=C/c2ccccc2)CC1,-0.6,0.72,/,-2.1,-0.7,-2.4,/,/,/
O=S(Cc1ccc(Br)cc1)Cc1nnc(SCc2ccc(Cl)cc2)n1-c1ccccc1 (stereo not drawn),-7.9,0.659,/,2.1,0.9,-2.3,/,/,/
COc1cc(OC)cc(C(=O)NCCNC(=O)c2ccccc2)c1,4.2,0.676,/,2.1,-1.3,7.8,/,/,/
Cc1ccccc1NC(=O)CCS(=O)(=O)c1ccc(Br)cc1,-5.2,0.701,i,4.6,0.9,-1.0,14.2,17.5,5.0
CC(=O)NCC(=O)OCc1ccc([N+](=O)[O-])cc1,0.3,0.687,/,1.1,-1.7,-3.0,/,/,/
CC1(C)CC(=O)N(CC(=O)NCc2ccc(F)cc2)c2ccccc2S1(=O)=O,3.1,0.762,i,4.0,-2.1,/,9.8,4.4,0.0
CC1(C)OC(=O)C(=CNc2ccccc2F)C(=O)O1,-13.5,0.721,/,-0.5,-2.2,-15.9,/,/,/
O=C1NC(=S)S/C1=C\c1cc(Cl)ccc1Cl,5.5,0.592,i,6.6,-1.3,/,-71.5,-78.2,-27.9
O=C(NCc1cccnc1)c1cccc(C(F)(F)F)c1,4.0,0.689,/,0.8,2.4,-12.6,/,/,/
Cn1c(N2CCOCC2)nc2c1c(=O)n(Cc1ccc(Cl)cc1)c(=O)n2C,-7.8,0.676,/,1.0,0.7,-1.5,/,/,/
CCN(CC)S(=O)(=O)c1ccc(N2CCOCC2)c(NC(=O)c2c3c(nc4ccccc24)CCC3)c1,-4.3,/,/,1.2,-25.8,-2.9,/,/,/
CCn1c2ccccc2c2cc(NC(=O)CN3CCCC3)ccc21,8.2,0.686,i,2.1,4.4,-8.3,-8.6,-11.9,2.8
O=C(NNS(=O)(=O)c1ccc(F)cc1)c1sccc1-n1cccc1,-0.3,0.695,i,1.5,-0.2,20.5,-4.2,-4.5,-7.1
O=C(NCc1ccco1)c1c(F)cccc1Cl,0.3,0.709,/,1.6,0.2,5.3,/,/,/

# Continued.
SMILES,Beta2AR agonist,E coli growth,FGF22 binding,UCH37 inh,HNF4A DNA FP,ALR inh,Ecoli rRNA inh,Ecoli rRNA inh OD600,Ecoli rRNA inh RFP
COC(=O)c1ccccc1NC(=O)CCCn1nc(C)c2c(C)n(-c3ccccc3)nc2c1=O,-1.1,0.598,i,-0.5,1.2,2.3,-3.3,-3.3,3.1
Cc1cccc(C)c1NC(=O)CN1C(=O)C(C)Oc2ccccc21 (stereo not drawn),-2.4,0.591,i,1.0,-0.7,/,/,/,/
CCc1ccc(OCC(=O)NNCC(=O)Nc2ccc(OC)cc2)cc1,-1.0,0.654,i,2.0,0.2,/,-0.5,8.0,0.7
COC(=O)C1=CN(c2ccc(N3CCOCC3)cc2)C(N)=C(C#N)C1c1ccccc1 (stereo not drawn),/,/,i,/,-2.2,/,-3.0,-5.6,3.7
Cc1c(C#N)c(O)n(CCO)c(=O)c1N=Nc1ccc2c(c1)COC2=O,-5.6,0.689,i,10.1,7.2,/,13.5,9.6,12.2
O=[N+]([O-])c1ccc(Cl)c(S(=O)(=O)/N=C(/c2ccccc2)N2CCOCC2)c1,-7.0,/,i,/,3.2,-13.2,7.1,12.8,0.4
O=C(C=Cc1cccc(Cl)c1)c1ccccc1,19.2,0.666,i,5.2,0.4,/,-6.7,0.1,5.5
NC(=O)NNc1cccc(Cl)n1,-1.1,0.705,i,0.2,4.3,/,2.6,-2.5,-1.1
Cc1cccc(C(=O)Nc2ccccc2NC(=O)c2cccc(C)c2)c1,10.2,0.643,i,2.3,-1.8,-5.7,-8.0,-20.2,4.7
O=C(NN1C(=O)c2ccccc2NC12CCCCC2)c1ccccc1,1.3,0.695,i,-94.2,-0.6,2.1,12.2,0.3,-0.3
Cc1oc(-c2ccccc2F)nc1CS(=O)(=O)CC(=O)N1CCCCCC1,5.9,0.774,i,3.1,1.1,10.4,10.1,6.8,-1.8
COCCCNCC(=O)c1c(N)n(Cc2ccccc2)c(=O)n(C)c1=O,0.3,0.616,/,2.1,1.8,-0.4,/,/,/
